BJeLR lethal: BJeLR cell viability loss. BJeLR (HRASV12) viability, CellTiter-Glo ATP luminescence, 48 h; reference of the scale not given here. inhibition, % (concentration not given with the values). 0.17% of 300,000 active. AID 1554;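 active = replicate mean above 50%; inconclusive = above 50% but judged a plate artefact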;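 also: 50 nL library stock added to about 25 µL; numbers are from one replicate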
Mtb hypoxia rep: reduces hypoxia-regulated biosensor signal in M. tuberculosis. fluorescence inhibition, % (concentration not given with the values). AID 1159583. M. tuberculosis hypoxia-regulated fluorescent reporter, fluorescence. 0.1% of 300,000 active;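 active = 35 to 45% if threefold the growth effect, above 45% if 1.5-fold the growth effect; inactive = the rest, general growth blockers included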;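 also: wells of about 50 µL received 100 nL stock; 0% = vehicle wells and 100% = reference inhibitor wells; whole bacteria with a GFP reporter of the hypoxia response; strong numbers were not always called active; many hits fall short of the cut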
PrP UTR inh: inhibition of PrP 5' UTR reporter expression; cell-based PrP 5' UTR mRNA reporter, plate reader; inhibition, % (no concentration beside the values); 0.35% of 340,000 active;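 active = every replicate at 50% or more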;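 also: 0 = median of the neutral control wells; tested in H4 reporter cells; numbers are from one replicate; inactives centre near -14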
ugtP null kill: growth inhibition of S. aureus ugtP deletion strain; 0.54% of 330,000 active; AID 1259309; S. aureus RN4220 ugtP deletion, OD600 growth, 16 h; some inactives read as strong as hits; growth inhibition, % (test concentration not listed);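 active = z-score under -3 and OD600 up to 0.15 on both plates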;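 also: plate controls were untreated wells for no effect and antibiotic for full effect; wells of about 80 µL received 100 nL stock; the first replicate is given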
Sa RN4220 lethal: S. aureus RN4220 growth inhibition; inhibition, % (no concentration beside the values); AID 1259311; OD600, 16 h; 0.33% of 330,000 active;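 active = z-score of -3 or lower and OD600 up to 0.18 on both plates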;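 also: plate controls were untreated cells for no effect and reference antibiotic for full effect; stock transfer was 100 nL into about 80 µL; one replicate is shown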
Bead autofluor: flagged as autofluorescent in microsphere protease counterscreen. fluorescence intensity (concentration not given with the values). compound autofluorescence counterscreen, microsphere flow cytometry; stronger effect = higher value. 3.1% of 360,000 active;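 active = at least 3 SD above the mean of all compounds, about 16000 in these data; inconclusive = too few beads counted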;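 also: 100 nL of 1 mM stock went into each well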
Mtb hypoxia rep growth: further read-out of Mtb hypoxia rep, marked with its call; growth inhibition, %; measured here: M. tuberculosis growth (absorbance);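 0% = vehicle and 100% = reference antibiotic; read after six days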
Active calls of the source: *.

Results for CCOc1cc(CN2CCN(Cc3ccc(C)o3)C(CCO)C2)ccc1OC (configuration not stated) ?
BJeLR lethal: 3; Mtb hypoxia rep: 11; PrP UTR inh: -16; ugtP null kill: 6; Sa RN4220 lethal: 2.1; Bead autofluor: 2060; Mtb hypoxia rep growth: 1

How did O=C(OCC(=O)c1cccc2ccccc12)c1ccc(CO)cc1 do in these assays?
BJeLR lethal: -6; Mtb hypoxia rep: 12; PrP UTR inh: -40; ugtP null kill: -2; Sa RN4220 lethal: 5.6; Bead autofluor: 5648; Mtb hypoxia rep growth: 6

What do the screens show for `CCCCC(=O)Nc1nnc(SCC(=O)NC2CCCC2)s1`?
BJeLR lethal: -6; Mtb hypoxia rep: 2; PrP UTR inh: -16; ugtP null kill: -4; Sa RN4220 lethal: 0.7; Bead autofluor: 4706; Mtb hypoxia rep growth: 1

How did COc1ccc(NC(=O)CN(C)C(=O)/C=C/c2ccc(OCc3ccccc3)cc2)cc1 do in these assays?
BJeLR lethal: 3; Mtb hypoxia rep: 7; PrP UTR inh: -16; ugtP null kill: -4; Sa RN4220 lethal: 10; Bead autofluor: 4044; Mtb hypoxia rep growth: -7

What do the screens show for `CCCNC(=O)CCC(NS(=O)(=O)c1ccc(C)cc1)C(=O)NCCC` (configuration not stated)?
BJeLR lethal: -9; Mtb hypoxia rep: -8; PrP UTR inh: -12; ugtP null kill: -2; Sa RN4220 lethal: 3.9; Bead autofluor: 8080; Mtb hypoxia rep growth: 2

How did Cc1ccc(NC(=O)NCCSc2ccc(C)cc2)cc1 do in these assays?
BJeLR lethal: -3; Mtb hypoxia rep: 1; PrP UTR inh: 6; ugtP null kill: 1; Sa RN4220 lethal: 6.7; Bead autofluor: 4445; Mtb hypoxia rep growth: 0

What do the screens show for `O=C(Nc1cc(C(F)(F)F)ccc1-n1cncn1)C1CC1`?
BJeLR lethal: -6; Mtb hypoxia rep: 7; PrP UTR inh: -33; ugtP null kill: 8; Sa RN4220 lethal: 4.3; Bead autofluor: 6325; Mtb hypoxia rep growth: -6

Results for CNC(=O)CSCc1cnn(-c2ccccc2)c1-n1cccc1 ?
BJeLR lethal: 0; Mtb hypoxia rep: 3; PrP UTR inh: -26; ugtP null kill: 3; Sa RN4220 lethal: 2.5; Bead autofluor: 5489; Mtb hypoxia rep growth: 9

What do the screens show for `O=S(=O)(c1ccc(-c2csc(-c3cccnc3)n2)cc1)N1CCOCC1`?
BJeLR lethal: 5; Mtb hypoxia rep: -2; PrP UTR inh: -19; ugtP null kill: -4; Sa RN4220 lethal: -0.4; Bead autofluor: 3458; Mtb hypoxia rep growth: 13

How did CCN1CCN(CC(=O)Nc2ccc(C)cc2C)C(=O)C1=O do in these assays?
BJeLR lethal: -5; Mtb hypoxia rep: 3; PrP UTR inh: -17; ugtP null kill: 10; Sa RN4220 lethal: 1.6; Bead autofluor: 5021; Mtb hypoxia rep growth: 4

Results for CCOc1ccccc1NC(=O)CCc1nnc2ccc(N3CCC4(CC3)OCCO4)nn12 ?
BJeLR lethal: -9; Mtb hypoxia rep: -12; PrP UTR inh: -5; ugtP null kill: 4; Sa RN4220 lethal: 1.5; Bead autofluor: 5975; Mtb hypoxia rep growth: -5

Results for CN1CC2C3C(=O)N(C)C(=O)C3[C@](C)(C1=O)N2C(=O)c1ccc(Cl)cc1 (some centres not stated) ?
Mtb hypoxia rep: 8; ugtP null kill: 10; Sa RN4220 lethal: 7.4; Mtb hypoxia rep growth: 4

What do the screens show for `CC1CCCC(NC(=O)COC(=O)c2cccc(S(=O)(=O)N3CCCCC3)c2)C1C` (configuration not stated)?
Mtb hypoxia rep: 11; PrP UTR inh: -29; ugtP null kill: 1; Sa RN4220 lethal: 3.8; Bead autofluor: 8584; Mtb hypoxia rep growth: 5

Results for Cc1ccc(OCC(=O)N2CCN(c3ccc([N+](=O)[O-])c(N4CCOCC4)c3)CC2)cc1 ?
BJeLR lethal: -1; Mtb hypoxia rep: -8; PrP UTR inh: -5; ugtP null kill: -3; Sa RN4220 lethal: -5.9; Bead autofluor: 6334; Mtb hypoxia rep growth: -8

What do the screens show for `COc1ccccc1NC(=O)c1ccc(C(=O)c2ccccc2)o1`?
BJeLR lethal: 0; PrP UTR inh: -21; Bead autofluor: 4346

What do the screens show for `CCCCNC(=S)Nc1cccc(S(=O)(=O)NC2=NCCC2)c1`?
BJeLR lethal: -10; Mtb hypoxia rep: -5; PrP UTR inh: -8; ugtP null kill: 4; Sa RN4220 lethal: 2.8; Bead autofluor: 4159; Mtb hypoxia rep growth: -2

Results for CCOC(=O)C1CCN(C(=O)CC2(CC(=O)O)CCCC2)CC1 ?
BJeLR lethal: 2; Mtb hypoxia rep: 6; PrP UTR inh: -17; ugtP null kill: 7; Sa RN4220 lethal: 1.7; Bead autofluor: 5893; Mtb hypoxia rep growth: 4

How did CC(=O)C(Sc1ccc2nnc(-c3ccncc3)n2n1)C(C)=O do in these assays?
BJeLR lethal: -6; Mtb hypoxia rep: 2; PrP UTR inh: -14; ugtP null kill: -3; Sa RN4220 lethal: 7.5; Bead autofluor: 6060; Mtb hypoxia rep growth: 2

What do the screens show for `O=C(NC1CCN(S(=O)(=O)c2cccc([N+](=O)[O-])c2)CC1)C1CCCCC1`?
BJeLR lethal: -4; Mtb hypoxia rep: 3; PrP UTR inh: -20; ugtP null kill: 3; Sa RN4220 lethal: -0.7; Bead autofluor: 3343; Mtb hypoxia rep growth: 2

How did COc1ccc(CCNC(=O)CSc2nc(C)nc3c2oc2ccccc23)cc1OC do in these assays?
BJeLR lethal: -10; PrP UTR inh: -17; ugtP null kill: -6; Sa RN4220 lethal: 1.6; Bead autofluor: 4134

What do the screens show for `O=C(NN=Cc1ccccc1O)C(O)c1ccccc1` (configuration not stated)?
Mtb hypoxia rep: 10; PrP UTR inh: -12; ugtP null kill: 3; Sa RN4220 lethal: 3.0; Bead autofluor: 3772; Mtb hypoxia rep growth: 9

Results for CC(=O)Nc1ccc(NC(=O)c2c(C)nn(-c3ccccc3)c2Cl)cc1C ?
BJeLR lethal: -8; Mtb hypoxia rep: 8; PrP UTR inh: -19; ugtP null kill: 5; Sa RN4220 lethal: -1.1; Bead autofluor: 3956; Mtb hypoxia rep growth: 12

Results for C=CCN(c1ccccc1)S(=O)(=O)c1cccc(C(=O)Nc2nnc(SCC)s2)c1 ?
BJeLR lethal: 13; Mtb hypoxia rep: 6; PrP UTR inh: -2; ugtP null kill: 6; Sa RN4220 lethal: 21; Bead autofluor: 2167; Mtb hypoxia rep growth: 0

Results for O=C(O)Cc1ccc(NC(=O)Nc2cccc(Cl)c2)cc1 ?
BJeLR lethal: -6; Mtb hypoxia rep: 2; PrP UTR inh: -10; ugtP null kill: 5; Sa RN4220 lethal: 8.6; Bead autofluor: 2517; Mtb hypoxia rep growth: 10

What do the screens show for `COC(=O)[C@@H]1C[C@@]2(O)[C@@H](O)[C@@H](O)[C@@H](O)C[C@H]2N1Cc1ccc(Cl)cc1`?
BJeLR lethal: -9; PrP UTR inh: -18; Bead autofluor: 3993

Results for O=C(O)c1cc(-c2ccc3c(c2)OCO3)nc2ccc(Cl)cc12 ?
BJeLR lethal: -6; Mtb hypoxia rep: 1; PrP UTR inh: 0; ugtP null kill: -15; Sa RN4220 lethal: 13; Bead autofluor: 4462; Mtb hypoxia rep growth: 2

How did CCCNC(=O)CSCc1nc(-c2ccc(SC)cc2)oc1C do in these assays?
BJeLR lethal: 3; Mtb hypoxia rep: 7; PrP UTR inh: -30; ugtP null kill: -9; Sa RN4220 lethal: 1.1; Bead autofluor: 2558; Mtb hypoxia rep growth: 10

Results for COc1ccc(-c2nn(CCC#N)cc2C(=O)Nc2cccc(C(=O)O)c2)cc1[N+](=O)[O-] ?
BJeLR lethal: -11; Mtb hypoxia rep: -2; PrP UTR inh: -19; ugtP null kill: 1; Sa RN4220 lethal: 3.4; Bead autofluor: 5403; Mtb hypoxia rep growth: -2

Results for COc1cccc(-n2nnc3c(=O)n(Cc4c(F)cccc4Cl)cnc32)c1 ?
BJeLR lethal: 5; Mtb hypoxia rep: -2; PrP UTR inh: -23; ugtP null kill: 5; Sa RN4220 lethal: 5.0; Bead autofluor: 8778; Mtb hypoxia rep growth: 10

Results for O=C(Nc1ccc(NC(=O)C23CC4CC(CC(C4)C2)C3)cc1)c1cc(F)c(F)cc1Cl ?
BJeLR lethal: -2; Mtb hypoxia rep: 2; PrP UTR inh: -35; ugtP null kill: -3; Sa RN4220 lethal: -0.2; Bead autofluor: 2497; Mtb hypoxia rep growth: -1

What do the screens show for `CC(=O)Nc1cccc(NC(=O)COC(=O)C2CC3CCCC(C2)C3=O)c1` (configuration not stated)?
BJeLR lethal: 4; Mtb hypoxia rep: 5; PrP UTR inh: 2; ugtP null kill: 5; Sa RN4220 lethal: 1.5; Bead autofluor: inconclusive; Mtb hypoxia rep growth: 16

Results for COC(=O)C1=C(C)NC(=O)C1(NC(=O)c1cccnc1)C(F)(F)F (configuration not stated) ?
BJeLR lethal: -2; Mtb hypoxia rep: 2; PrP UTR inh: -18; ugtP null kill: 4; Sa RN4220 lethal: 2.3; Bead autofluor: 3452; Mtb hypoxia rep growth: 9

How did O=C(O)CC12CC3CC(C1)CC(n1ncc(NCc4ccc(F)cc4)c(Cl)c1=O)(C3)C2 do in these assays?
BJeLR lethal: -5; Mtb hypoxia rep: 9; PrP UTR inh: -12; ugtP null kill: -3; Sa RN4220 lethal: 2.4; Bead autofluor: 3948; Mtb hypoxia rep growth: 1

How did COc1cc(OC)c(-c2nnc(-c3ccc(OC)c(OC)c3OC)o2)cc1OC do in these assays?
BJeLR lethal: 7; Mtb hypoxia rep: 0; PrP UTR inh: -4; ugtP null kill: -7; Sa RN4220 lethal: 4.8; Bead autofluor: 23443*; Mtb hypoxia rep growth: 8

What do the screens show for `CC1CCCC(NC(=O)COC(=O)c2ccc(N(C)C)cc2)C1C` (configuration not stated)?
BJeLR lethal: -2; Mtb hypoxia rep: 17; PrP UTR inh: -25; ugtP null kill: -5; Sa RN4220 lethal: 3.9; Bead autofluor: 10072; Mtb hypoxia rep growth: 6

Results for CCc1cccc2c(C(=O)COC(=O)c3ccc([N+](=O)[O-])s3)c[nH]c12 ?
BJeLR lethal: -9; Mtb hypoxia rep: 8; PrP UTR inh: -12; ugtP null kill: 101*; Sa RN4220 lethal: 100*; Bead autofluor: 1957; Mtb hypoxia rep growth: -3

Results for O=C(NC(Cc1c[nH]c2ccccc12)c1nnc2n1CCCCC2)c1cccs1 (configuration not stated) ?
BJeLR lethal: 13; Mtb hypoxia rep: -2; PrP UTR inh: -10; ugtP null kill: 6; Sa RN4220 lethal: 3.5; Bead autofluor: 5550; Mtb hypoxia rep growth: 6

How did Cn1ccsc1=NC(=O)Nc1cccc(Cl)c1 do in these assays?
Mtb hypoxia rep: 6; ugtP null kill: 9; Sa RN4220 lethal: 3.2; Mtb hypoxia rep growth: 16

How did O=C(Nc1ccc(-c2csc(Nc3ccc(Cl)cc3)n2)cc1)c1cc([N+](=O)[O-])cc(C(F)(F)F)c1 do in these assays?
BJeLR lethal: 0; PrP UTR inh: -11; Bead autofluor: 3844

What do the screens show for `CCc1ccc(N(CC(=O)Nc2nc3ccc(C)cc3s2)S(=O)(=O)c2c(C)noc2C)cc1`?
BJeLR lethal: 4; PrP UTR inh: -37; ugtP null kill: 6; Sa RN4220 lethal: -5.8; Bead autofluor: 5862

What do the screens show for `O=C(NCCC(=O)N1CCN(Cc2c(F)cccc2Cl)CC1)c1ccc(Cl)cc1`?
Mtb hypoxia rep: 4; PrP UTR inh: -5; ugtP null kill: 15; Sa RN4220 lethal: 7.6; Bead autofluor: 6819; Mtb hypoxia rep growth: 2

Reprinted at random: 3 entries already listed, in no set order.
Results for COc1ccc(-c2nn(CCC#N)cc2C(=O)Nc2cccc(C(=O)O)c2)cc1[N+](=O)[O-] ?
BJeLR lethal: -11; Mtb hypoxia rep: -2; PrP UTR inh: -19; ugtP null kill: 1; Sa RN4220 lethal: 3.4; Bead autofluor: 5403; Mtb hypoxia rep growth: -2

Results for CCc1cccc2c(C(=O)COC(=O)c3ccc([N+](=O)[O-])s3)c[nH]c12 ?
BJeLR lethal: -9; Mtb hypoxia rep: 8; PrP UTR inh: -12; ugtP null kill: 101*; Sa RN4220 lethal: 100*; Bead autofluor: 1957; Mtb hypoxia rep growth: -3

What do the screens show for `O=C(NN=Cc1ccccc1O)C(O)c1ccccc1` (configuration not stated)?
Mtb hypoxia rep: 10; PrP UTR inh: -12; ugtP null kill: 3; Sa RN4220 lethal: 3.0; Bead autofluor: 3772; Mtb hypoxia rep growth: 9
